Bioassay records as filed in PubChem.
WNV protease inh = inhibitors of WNV NS2B-NS3 protease, primary screen, biochemical, fluorogenic substrate | Genome polyprotein (West Nile virus), P06935 | 65,000 compounds, 0.18% hits | fluorogenic substrate Ex360/Em465; hits give low values | AID 577, 2007 | z-score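 (tested at a level between 10 and 100 µM)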;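 active = z-score at -3 or under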;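 also: score is relative to mean and spread of the compound wells of a plate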
Target sequence (P06935 1371-1501 limits assumed): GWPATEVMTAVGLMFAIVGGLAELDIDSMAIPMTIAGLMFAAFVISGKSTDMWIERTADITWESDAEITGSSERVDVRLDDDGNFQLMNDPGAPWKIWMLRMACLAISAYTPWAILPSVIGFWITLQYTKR
Target sequence (P06935 1502-1679 limits assumed): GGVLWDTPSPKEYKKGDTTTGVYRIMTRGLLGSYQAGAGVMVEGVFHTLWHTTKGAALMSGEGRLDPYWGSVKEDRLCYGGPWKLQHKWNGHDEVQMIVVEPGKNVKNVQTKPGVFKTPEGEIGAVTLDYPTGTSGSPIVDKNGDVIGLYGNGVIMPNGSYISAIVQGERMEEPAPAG
Starred values were filed as active, the others as inactive. Not all compounds are listed; count on the stated rates, not on these rows.

For CC1CN(C(c2ccco2)c2sc3ncnn3c2O)CC(C)O1 (configuration not stated) the results were WNV protease inh 0.06.
Screening O=C(NCc1nc(-c2ccccc2)no1)c1cccs1 returned WNV protease inh 0.12.
`CN1CCc2c(sc3c2C(=O)NC(c2cccc(OC(=O)c4cccs4)c2)N3)C1` (configuration not stated) gave WNV protease inh -0.49.
`COc1cc(NC(=O)c2c(F)cccc2F)nc(OC)n1` gave WNV protease inh 1.4.
COc1ccc(-c2nc(SCC(=O)NCc3ccco3)c(-c3ccccc3)[nH]2)cc1OC was read as WNV protease inh -0.81.
Screening CCCCn1cnc2c(cnn2-c2ccc(F)cc2)c1=O returned WNV protease inh 0.82.
Screening CCOC(=O)C1CCCN(C(=O)CC(C)c2ccccc2)C1 (configuration not stated) returned WNV protease inh -1.2.
O=C(COC(=O)c1cnccn1)c1ccc2c(c1)CCCC2 was read as WNV protease inh 0.59.
For CC(=O)NC(NC(C)=O)c1ccc(Br)cc1 the results were WNV protease inh -0.68.
For CCCC(C(=O)NC1CCCCC1)N(Cc1ccco1)C(=O)CNS(=O)(=O)c1ccccc1 (configuration not stated) the results were WNV protease inh -1.2.
`c1nc(COc2nsnc2N2CCOCC2)cs1` gave WNV protease inh -1.1.
Screening CCOC(=O)C(C)Oc1cccc2c(=O)n(CC(=O)N3CCN(C(=O)OCC)CC3)ccc12 (configuration not stated) returned WNV protease inh -0.06.
`Cc1ccc2[nH]c(=O)c(CN(CCc3ccccc3)C(c3nnnn3Cc3ccco3)C(C)C)cc2c1` (configuration not stated) gave WNV protease inh -1.
COc1ccc(C(=O)NCc2cn3cccc(C)c3n2)cc1OC was read as WNV protease inh 0.5.
`COc1ccc(NC(=O)C2CCN(Cc3cnn(-c4ccccc4)c3-n3cccc3)CC2)cc1OC` gave WNV protease inh 0.31.
`CCOC(=O)C1CCCCN1Cc1cc(Cl)ccc1O` (configuration not stated) gave WNV protease inh -0.86.
`O=C(CSc1nnc(CNC(=O)c2ccccc2F)o1)c1ccccc1` gave WNV protease inh -0.74.
`COc1cccc(CNC(=O)c2ccccc2N)c1` gave WNV protease inh 0.5.
`O=C(NCCSCc1ccco1)c1ccc(CN2CCOCC2)cc1` gave WNV protease inh 1.1.
Screening O=C1OCc2cccc3cccc1c23 returned WNV protease inh -0.65.
For COc1ccc(S(=O)(=O)N2Cc3ccccc3CC2C(=O)Nc2nccs2)cc1OC (configuration not stated) the results were WNV protease inh 1.8.
CC12CC(NC(=O)N1c1cccc(C(=O)N3CCN(c4ccccc4)CC3)c1)c1ccccc1O2 (configuration not stated) was read as WNV protease inh 0.66.
Cc1ccc(C)c(S(=O)(=O)NCc2ccc(C(=O)N3CCN(C)CC3)cc2)c1 was read as WNV protease inh -0.25.
Screening Cc1cc(NC(=O)CSc2ccc3nnc(-c4cccs4)n3n2)no1 returned WNV protease inh 0.89.
CCc1nc2c(c(=O)[nH]1)C1(CCCC1)Cc1ccccc1-2 was read as WNV protease inh -0.75.
For CCN(CC)S(=O)(=O)c1ccc(C(=O)NC2=C(C(=O)OC)SCC2)cc1 the results were WNV protease inh 0.28.
`COc1ccc(C2CC(=O)c3c([nH]c(C(=O)OC(C)C)c3C)C2)cc1OC` (configuration not stated) gave WNV protease inh -0.47.
CN1CC=C2C(C#N)=C(N)C(C#N)(C#N)[C@H](c3cccc(Cl)c3)C2C1 (some centres not stated) was read as WNV protease inh -0.75.
Screening COc1ccc(-c2nc3n(c(=O)c2C#N)CCCS3)cc1 returned WNV protease inh -0.35.
`CCOC(=O)c1cnc2ccc(Br)cc2c1NCCO` gave WNV protease inh 0.04.
`CC(=O)Nc1ccc(N/C=C/C(=O)c2ccc(C)o2)cc1` gave WNV protease inh 2.
For O=C(CSc1nc2ccccc2o1)c1ccc2c(c1)OCCO2 the results were WNV protease inh -0.54.
CC(C)C(NC(=O)c1ccc(Cl)cc1)C(=O)NC1=NCCS1 (configuration not stated) was read as WNV protease inh -1.8.
Screening O=C(COc1ccc(Cl)cc1)N1CCN(C(=O)c2cccc(F)c2)CC1 returned WNV protease inh -0.85.
CCOC(=O)Cc1csc(NC(=O)c2ccc(S(=O)(=O)N3CCCCC3)cc2)n1 was read as WNV protease inh 1.7.
For CCCOc1ccc(-c2nc(N)n[nH]2)cc1 the results were WNV protease inh 1.2.
`O=C(NCC(c1cccs1)N1CCOCC1)c1cc2ccccc2o1` (configuration not stated) gave WNV protease inh 0.03.
O=C(CSc1nnc(CNC(=O)c2ccco2)o1)c1ccccc1 was read as WNV protease inh -0.63.
`O=S(=O)(c1ccc(-c2nnc(SCc3nnc(-c4ccccc4)o3)o2)cc1)N1CCCC1` gave WNV protease inh 0.55.
Screening COc1ccc(C(=O)Nn2c(SCC(=O)NCC3CCCO3)nc3ccccc3c2=O)cc1 (configuration not stated) returned WNV protease inh -0.41.
Cc1ccc(Cn2nnc3c(=O)n(Cc4ccccc4C)cnc32)cc1 was read as WNV protease inh 0.1.
For Cn1nccc1C(=O)Nc1ccc(OC(=O)c2ccnn2C)cc1 the results were WNV protease inh 0.4.
O=C(NCCN1CCCCCC1)c1ccc(CS(=O)(=O)c2ccc(Br)cc2)o1 was read as WNV protease inh 0.78.
Screening CCC1CCCCN1CCNS(=O)(=O)c1ccc2c(c1)CCN2C(C)=O (configuration not stated) returned WNV protease inh -0.03.
For CCOC(=O)C1=C(O)C(=O)N(c2ccc(S(N)(=O)=O)cc2)C1c1ccc(OC)cc1 (configuration not stated) the results were WNV protease inh -0.54.
N=c1n(-c2ccccc2)c(O)cc(=O)n1-c1ccccc1 was read as WNV protease inh -0.31.
CCOC(=O)C(C)n1ncn2cccc2c1=O (configuration not stated) was read as WNV protease inh -0.28.
For CCN1CCN(C(=O)Nc2cccc3ccccc23)CC1 the results were WNV protease inh -0.03.
`CC1(C)CC(=O)C2=C(C1)N(c1ccccc1C#N)C(N)=C(C#N)C2c1cccs1` (configuration not stated) gave WNV protease inh 0.01.
Screening CCOC(=O)N1CCC(N2CCN(c3cc(C)ccc3C)CC2)CC1 returned WNV protease inh -0.45.
`CCCCSCCCNC(=O)Nc1cccc(OC)c1` gave WNV protease inh -0.38.
`COc1ccccc1S(=O)(=O)Cc1ccc(C(=O)N2CCN(c3ccc(C)cc3)C(C)C2)o1` (configuration not stated) gave WNV protease inh 0.14.
CNC(=O)c1ccc(OCc2ccccc2)c(OC)c1 was read as WNV protease inh 0.41.
Cc1cccc(N2CCN(C(=O)C3CCCN(S(=O)(=O)c4c(C)noc4C)C3)CC2)c1C (configuration not stated) was read as WNV protease inh -0.32.
Cc1ccc(NC(=O)c2cnn(-c3ccccc3)c2NC(=O)c2ccco2)cc1C was read as WNV protease inh 1.1.
Cc1cccc(-n2ncc3c(N4CCOCC4)ncnc32)c1 was read as WNV protease inh 0.22.
COc1ccc(S(=O)(=O)N(C)CC(=O)Nc2cccc(C(C)=O)c2)cc1 was read as WNV protease inh -0.45.
For CC(Sc1ncc(C#N)c(N)n1)C(=O)Nc1ccccc1 (configuration not stated) the results were WNV protease inh 0.05.
For COc1cccc(C(=O)Nc2ccc(N(C)C)cc2)c1OC the results were WNV protease inh -0.29.
For O=C(c1cc2c(s1)CCCCC2)N1CCN(c2ncccn2)CC1 the results were WNV protease inh -0.23.

Random excerpt: two compounds from above
CNC(=O)c1ccc(OCc2ccccc2)c(OC)c1 was read as WNV protease inh 0.41.
`CCCCSCCCNC(=O)Nc1cccc(OC)c1` gave WNV protease inh -0.38.

Additional records
Screening CC(C)(C#N)Nc1ccccc1 returned WNV protease inh 0.43.
Screening CCOc1ccccc1NC(=O)CSc1nnc(CNC(=O)c2ccco2)o1 returned WNV protease inh -0.51.
Cc1ccc(NS(=O)(=O)c2cccc(C(=O)Nc3cc(C)on3)c2)cc1 was read as WNV protease inh -0.18.
Screening CC(=O)N1CCc2cc(S(=O)(=O)NCCN3CCC(C)CC3)ccc21 returned WNV protease inh -0.57.
For COc1ccc(NC(=O)CN2CCN(S(=O)(=O)c3ccc(Cl)cc3)CC2)cc1 the results were WNV protease inh -0.57.
`CC(=O)N1CCc2cc(S(=O)(=O)NCCCN3CCN(Cc4ccccc4)CC3)ccc21` gave WNV protease inh 0.05.
Screening Cc1nn(-c2ccccc2)c(-c2ccccc2)c1C(=O)O returned WNV protease inh 0.11.
For COC(=O)C1=C(NC(=O)c2cccs2)CCS1 the results were WNV protease inh 1.1.
Screening CCOC(=O)Nc1c(C)n(C)n(-c2ccccc2)c1=O returned WNV protease inh 0.83.
Screening C/C=C/c1ccc(Oc2nnnn2-c2ccc(C(=O)O)cc2)c(OC)c1 returned WNV protease inh -0.64.
Screening O=C(c1ccc(O)cc1)c1ccc(Cl)cc1 returned WNV protease inh -0.27.
For O=C(CCCn1c(=O)[nH]c2cc(Cl)ccc2c1=O)NCCCN1CCCC1=O the results were WNV protease inh -0.07.
`Cc1ccc(CN2CCN(CC(=O)N3CCc4ccccc4C3)C2=O)cc1` gave WNV protease inh -0.35.
`Cc1ccn2cc(CNC(=O)c3ccc(Br)o3)nc2c1` gave WNV protease inh 1.2.
COc1cc(OC)cc(C(=O)N(Cc2nc(-c3cccc(C)c3)no2)C(C)C)c1 was read as WNV protease inh 0.92.

Ordered by length of the SMILES (rising): 20 of the compounds above
Screening CC(C)(C#N)Nc1ccccc1 returned WNV protease inh 0.43.
Screening O=C(c1ccc(O)cc1)c1ccc(Cl)cc1 returned WNV protease inh -0.27.
For COC(=O)C1=C(NC(=O)c2cccs2)CCS1 the results were WNV protease inh 1.1.
CNC(=O)c1ccc(OCc2ccccc2)c(OC)c1 was read as WNV protease inh 0.41.
`Cc1ccn2cc(CNC(=O)c3ccc(Br)o3)nc2c1` gave WNV protease inh 1.2.
Screening CCOC(=O)Nc1c(C)n(C)n(-c2ccccc2)c1=O returned WNV protease inh 0.83.
Screening Cc1nn(-c2ccccc2)c(-c2ccccc2)c1C(=O)O returned WNV protease inh 0.11.
For O=C(c1cc2c(s1)CCCCC2)N1CCN(c2ncccn2)CC1 the results were WNV protease inh -0.23.
Screening CCOc1ccccc1NC(=O)CSc1nnc(CNC(=O)c2ccco2)o1 returned WNV protease inh -0.51.
`Cc1ccc(CN2CCN(CC(=O)N3CCc4ccccc4C3)C2=O)cc1` gave WNV protease inh -0.35.
Screening CC(=O)N1CCc2cc(S(=O)(=O)NCCN3CCC(C)CC3)ccc21 returned WNV protease inh -0.57.
Screening C/C=C/c1ccc(Oc2nnnn2-c2ccc(C(=O)O)cc2)c(OC)c1 returned WNV protease inh -0.64.
Cc1ccc(NS(=O)(=O)c2cccc(C(=O)Nc3cc(C)on3)c2)cc1 was read as WNV protease inh -0.18.
COc1ccc(S(=O)(=O)N(C)CC(=O)Nc2cccc(C(C)=O)c2)cc1 was read as WNV protease inh -0.45.
Cc1ccc(NC(=O)c2cnn(-c3ccccc3)c2NC(=O)c2ccco2)cc1C was read as WNV protease inh 1.1.
For COc1ccc(NC(=O)CN2CCN(S(=O)(=O)c3ccc(Cl)cc3)CC2)cc1 the results were WNV protease inh -0.57.
COc1cc(OC)cc(C(=O)N(Cc2nc(-c3cccc(C)c3)no2)C(C)C)c1 was read as WNV protease inh 0.92.
`CC(=O)N1CCc2cc(S(=O)(=O)NCCCN3CCN(Cc4ccccc4)CC3)ccc21` gave WNV protease inh 0.05.
Cc1cccc(N2CCN(C(=O)C3CCCN(S(=O)(=O)c4c(C)noc4C)C3)CC2)c1C (configuration not stated) was read as WNV protease inh -0.32.
`COc1ccccc1S(=O)(=O)Cc1ccc(C(=O)N2CCN(c3ccc(C)cc3)C(C)C2)o1` (configuration not stated) gave WNV protease inh 0.14.

Next part
For O=C(O)Cn1ccnc1 the results were WNV protease inh -0.87.
For CCOC(=O)N1CCN(S(=O)(=O)c2ccc3c(c2)CCN3C(=O)CC)CC1 the results were WNV protease inh -0.98.
For O=C(NCC1CCCO1)C1CCN(S(=O)(=O)c2cccnc2)CC1 (configuration not stated) the results were WNV protease inh 1.
Screening Cc1ccc(Nc2nc(C)c(CCC(C)C)c(=O)[nH]2)cc1 returned WNV protease inh -0.8.
`CCOC(=O)C1CCN(S(=O)(=O)c2cccc3nonc23)CC1` gave WNV protease inh -0.61.
`N#Cc1ccccc1NC(=O)c1ccc(-c2ccccc2Cl)o1` gave WNV protease inh 0.3.
COc1ccc(-c2nc(CSCC(=O)N3CCN(c4cccc(C)c4)C(C)C3)c(C)o2)cc1OC (configuration not stated) was read as WNV protease inh -0.34.
For Cc1cc(Nc2nc3c(c(=O)n(C)c(=O)n3C)n2C)n(-c2ccccc2)n1 the results were WNV protease inh -0.47.
CNc1nc(C)nc(-c2ccccc2O)n1 was read as WNV protease inh 0.6.
`COc1ccc(Cn2c(=O)[nH]c3cc(C(=O)NCCCN4CCCC4)ccc3c2=O)cc1` gave WNV protease inh -0.14.
`Cc1onc(-c2ccccc2)c1C(=O)N1CCc2ccccc21` gave WNV protease inh -1.9.
Screening CCOC(=O)C(C)Sc1nc2ccccc2c(=O)n1CC (configuration not stated) returned WNV protease inh 1.9.
O=C(/C=C/N1CCOCC1)c1cc2ccccc2o1 was read as WNV protease inh -0.37.
For COCCN(CCOC)S(=O)(=O)c1ccc(C(=O)Nc2nc(C)c(C(C)=O)s2)cc1 the results were WNV protease inh -0.19.
COc1cc(C(=O)NCCc2cn3ccc(C)cc3n2)cc(OC)c1OC was read as WNV protease inh -0.81.
Screening Cc1cccc(CSc2ncnc3nc[nH]c23)c1 returned WNV protease inh -0.47.
Cc1cc(C)nc(NS(=O)(=O)c2ccc(NC(=O)c3cccs3)cc2)n1 was read as WNV protease inh 0.21.
For CC(=O)c1ccc(Oc2ncnc3sccc23)c(CN2CCOCC2)c1 the results were WNV protease inh 2.
Screening CS(=O)(=O)c1ccc2nc(NC3(C(F)(F)F)N=C4SCCN4C3=O)sc2c1 (configuration not stated) returned WNV protease inh 1.2.
For COc1ccc(C(=O)N2CCN(S(=O)(=O)c3ccc(C)cc3C)CC2)cc1OC the results were WNV protease inh -0.23.
`CCOC(=O)N1CCC(NC(=O)Cc2cn(C)c3ccccc23)CC1` gave WNV protease inh 1.
`CCOC(=O)NC1(C(F)(F)F)C(=O)NC(C)=C1C(=O)OC` (configuration not stated) gave WNV protease inh -0.95.
COCCCNC(=O)CCCn1c(=O)c2ccccc2n(CC(=O)Nc2c(C)cccc2C)c1=O was read as WNV protease inh -0.27.
For Cc1cc(C(F)(F)F)n2ncc(-c3ccccc3)c2n1 the results were WNV protease inh -0.98.
Screening Nc1ccc2ncccc2c1N returned WNV protease inh 0.92.
